Beta2AR agonist – activates human beta-2 adrenergic receptor causing internalization; P07550; Am2.2-beta2AR cells, FAP receptor internalization, flow cytometry; reference of the scale not given here; response, % (concentration not given with the values); hit rate 0.43% among 340,000; AID 504454;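 active means response above a set limit, near 3 SD of response in nonfluorescent compounds, cut at about 42% in these data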;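 further: stock transfer was 100 nL into about 11 µL; a reference agonist was the positive control; negative values mostly stem from fluorescent compounds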
HNF4A DNA FP – change in binding of human HNF4 alpha to DNA | HNF4a-FITC DNA binding, fluorescence polarization, 1 h | activity change, % at 10 µM | AID 1224865 | P41235 | hit rate 0.3% among 360,000; in the data active means activity change above about 30%, passing the limit was not always enough;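 further: controls were the assay level and a saturating level of protein; the project sought stronger binding though the title names inhibitors; some compounds called inactive have numbers as strong as hits; positive values seem to mean higher polarization but the record does not say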
Target sequence (P41235 whole entry, looked up): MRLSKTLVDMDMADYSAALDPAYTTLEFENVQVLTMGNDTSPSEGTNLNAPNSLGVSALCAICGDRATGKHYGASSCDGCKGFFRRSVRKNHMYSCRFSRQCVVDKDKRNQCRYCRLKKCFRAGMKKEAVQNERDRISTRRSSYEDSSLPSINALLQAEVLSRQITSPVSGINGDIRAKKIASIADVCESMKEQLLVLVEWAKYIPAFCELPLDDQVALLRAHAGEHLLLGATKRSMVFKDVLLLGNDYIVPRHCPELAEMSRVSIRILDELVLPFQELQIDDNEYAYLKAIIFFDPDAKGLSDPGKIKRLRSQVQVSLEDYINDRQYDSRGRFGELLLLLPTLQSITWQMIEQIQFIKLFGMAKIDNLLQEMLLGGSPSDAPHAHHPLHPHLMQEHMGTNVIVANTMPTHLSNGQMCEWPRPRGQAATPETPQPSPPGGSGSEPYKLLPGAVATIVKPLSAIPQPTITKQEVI
UCH37 inh – human UCH37 deubiquitinating enzyme inhibition; Q9Y5K5; purified proteasome/UCH37, Ub-AMC cleavage fluorescence; inhibition, % (test concentration not listed); hit rate 0.33% among 330,000;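 active means mean of two replicates above 20%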;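 further: 0% = compound-free wells with enzyme and 100% = wells lacking proteasome; stock transfer was 100 nL into about 20 µL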
Target sequence (Q9Y5K5 whole entry, looked up): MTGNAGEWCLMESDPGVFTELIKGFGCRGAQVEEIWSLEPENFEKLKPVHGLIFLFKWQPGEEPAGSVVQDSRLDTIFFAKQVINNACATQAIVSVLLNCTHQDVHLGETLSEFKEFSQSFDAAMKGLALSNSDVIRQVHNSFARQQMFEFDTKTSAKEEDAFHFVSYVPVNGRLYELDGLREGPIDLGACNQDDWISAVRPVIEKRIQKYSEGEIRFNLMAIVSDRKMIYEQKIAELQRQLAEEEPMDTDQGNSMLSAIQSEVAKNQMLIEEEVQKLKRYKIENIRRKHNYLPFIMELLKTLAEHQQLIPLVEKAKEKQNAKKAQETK
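system = Proteasome-associated human UCH37 deubiquitinase | amount = 0.15 nM proteasome as dispensed | medium = pH 7.4 Tris-HCl (50 mM) with ovalbumin, ATP-MgCl2, DTT | incubation = 30 min preincubation with enzyme, 25 min cleavage at room temperature | detection = AMC fluorescence 355/460 nm | read-out basis = percent inhibition | controls = no-proteasome and no-compound wells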
Bfl-1 A1 inh – inhibitors of the anti-apoptotic protein A1, read as caspase activation. MEF A1-2A-BIM cells, Caspase-Glo 3/7 luminescence, 3 h; percent of clofoctol response, vehicle zero. caspase activation, % (no concentration beside the values). hit rate 0.066% among 330,000. AID 2462;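 active means over half of replicate activation scores above 10%, or exactly half above 10 with the replicate mean above 10; inconclusive means replicate mean below 10 yet half the replicates above 10; inactive means over half of replicates below 10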;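 further: wells of about 30 µL received 50 nL stock; many hits fall short of the cut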
Ecoli growth – E. coli growth inhibition | Escherichia coli growth, OD600, 23 h; active compounds read low | AID 1053175 | hit rate 0.21% among 330,000 | OD600 absorbance (test concentration not listed);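 active means OD600 absorbance below the run mean of sample wells minus 3.6 SD, in any replicate, cut at about 0.56 in these data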;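 further: stock transfer was 300 nL into about 60 µL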
LANA-H2B inh – blocks KSHV LANA binding to histone H2A/H2B | Q9QR71 | cell-free LANA-H2A/H2B peptide, fluorescence polarization | inhibition, % (no concentration beside the values) | hit rate 0.6% among 320,000 | AID 2629; in the data active means inhibition mostly above about 10%, no sharp cut-off; inactive means mostly below about 6.7%;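 further: stock transfer was 7.5 nL into about 10 µL; 0% = median of vehicle wells and 100% = median of positive control wells; one replicate is shown; the record names a cut of 25% in any replicate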
Vif TR-FRET – HIV-1 Vif–A3G interaction blockers – biochemical, TR-FRET, GST-Vif 1-94, biotin-A3G peptide, dose response retest, primary screen (AID 1117319); hit rate 0.57% among 260,000; inhibition, %, or IC50 in µM where a hit was titrated; TR-FRET GST-Vif / biotin-A3G peptide binding; higher % means a stronger effect; test concentration not given here; strong numbers were not always called active;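 active means above the screen mean plus three standard deviations and confirmed in dose response; inconclusive means results disagree or hit not tested in dose response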;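 further: Vif residues 1-94 fused to GST binding biotinylated APOBEC3G peptide 110-148; 0% = full assay without inhibitor and 100% = GST in place of GST-Vif; retest series ran down from 100 µM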
An asterisk follows results filed as active; ? = inconclusive; . = no result given.

SMILES	Beta2AR agonist	HNF4A DNA FP	UCH37 inh	Bfl-1 A1 inh	Ecoli growth	LANA-H2B inh	Vif TR-FRET
O=C(CC1C(=O)NCCN1C/C=C/c1ccccc1)NCCc1cccnc1 (stereo not drawn)	-2.8	-1.8	2.6	-0.1	0.704	-4.0	-8.3%
O=C(c1ccc2c(c1)OCO2)C1CCCN(C(=O)NCc2ccccc2)C1 (stereo not drawn)	-2.3	-6.0	2.2	0.9	0.706	2.1	-8.9%
COC(=O)c1cccc(NC(=O)Cn2nnc3ccccc32)c1	3.4	1.1	2.7	0.2	0.684	4.0	19.8%
COc1cc(O)c(C=Nc2ccccc2NS(=O)(=O)c2ccc(C)cc2)c(OC)c1	5.3	10.0	.	.	.	.	-9.7%
Cc1[nH]n(-c2ccccc2)c(=O)c1N=Nc1ccccc1O	7.9	1.4	8.0	.	0.707	.	0.9%
CCOC(=O)c1c(-c2ccc(C)cc2C)csc1NC(=O)CSc1nnnn1C	16.5	0.8	3.8	-0.2	0.705	-0.2	-3.6%
CC(C)N1C(=S)SC(C)(C)C1NO (stereo not drawn)	-1.6	1.2	-0.5	1.3	0.719	-1.2	30.6%
O=C(CSc1nnc(Cc2ccccc2)o1)N1CCCC1	-19.3	4.5	0.4	0.8	0.66	3.0	-5.3%
CCOC(=O)N1CCC(NC(=O)c2cnn3cccnc23)CC1	2.5	-1.4	-20.2	0.1	0.749	7.3	-2.6%
CC(O)CCc1ccc(O)cc1 (stereo not drawn)	-2.0	0.4	5.7	-0.2	0.733	1.0	1.5%
CC(C(=O)O)n1c2ccccc2c2cnn(C)c(=O)c21 (stereo not drawn)	2.8	-2.9	-2.5	-0.3	0.692	2.5	4.0%
CCCC(=O)Nc1nnc(/C=C/c2ccc(OC)cc2)s1	-6.7	0.8	-195.8	0.0	0.652	1.7	-8.3%
COc1ccc(/C=N/N(C)c2cc(=O)n(C)c(=O)[nH]2)cc1OC	-1.4	-0.8	.	-0.2	.	-3.4	.
CC(C)CC(NC(N)=O)C(=O)Nc1cccc([N+](=O)[O-])c1 (stereo not drawn)	-8.2	-0.1	1.4	-0.6	0.656	-4.3	.
CCCCN(C(=O)c1cccc(-n2cnnn2)c1)c1c(N)n(CC(C)C)c(=O)[nH]c1=O	-0.6	-0.4	-1.6	0.1	0.708	4.4	-3.3%
COc1ccc(CCNC(=O)C(=O)NCC2CCCN2S(=O)(=O)c2ccccc2)cc1OC (stereo not drawn)	4.9	2.2	-1.2	-0.1	0.638	3.4	0.3%
CC(C)CC(NC(=O)C1CCC(C)CC1)C(=O)Nc1ccc2c(c1)OCCO2 (stereo not drawn)	7.5	0.2	2.1	0.0	0.741	1.4	5.2%
CC(=O)N1CCN(Cc2nc3cc(NC(=O)c4cccc(Br)c4)ccc3n2C)CC1	-2.4	0.9	-1.0	0.0	0.707	-0.8	-7.5%
CCC(=O)NC(=S)Nc1ccc(NC(=O)c2ccc([N+](=O)[O-])cc2Cl)cc1	-11.5	2.1	7.6	0.1	0.659	0.0	.
COc1ccc(CCCc2nnc(SCC(=O)Nc3cccc(C)c3)o2)cc1	1.2	-1.8	3.8	-0.3	0.689	0.8	-5.6%
CN(C(=O)CC1C(=O)NCCN1CC1CCCCC1)C1CCOCC1 (stereo not drawn)	1.0	2.3	-40.7	1.0	0.691	-2.1	-0.8%
COc1cccc(NC(=O)Nc2cccs2)c1	-5.7	1.7	0.5	0.2	0.714	0.0	19.8%
COc1ccc(-c2nc(CS(=O)CC(=O)NCc3ccc4c(c3)OCO4)c(C)o2)cc1 (stereo not drawn)	5.0	3.1	-5.6	0.1	0.782	-2.3	2.8%
CC(NCCOCCOc1ccccc1)c1ccccc1 (stereo not drawn)	-4.9	3.9	2.0	-0.1	0.65	-1.7	1.1%
O=C1CC(SC(=Nc2ccccc2)Nc2ccccc2)C(=O)N1c1cccc(Cl)c1 (stereo not drawn)	11.4	-3.2	-2.1	-0.3	0.737	-5.8	3.2%
Other entries
SMILES	Beta2AR agonist	HNF4A DNA FP	UCH37 inh	Bfl-1 A1 inh	Ecoli growth	LANA-H2B inh	Vif TR-FRET
Cc1ccc(NC(=S)c2ccccc2)cc1	-1.1	-1.7	2.1	-2.7	0.66	-1.2	3.4%
CCc1ccc(-c2cc(C)no2)cc1S(=O)(=O)N1CCN(c2ccccn2)CC1	-2.7	0.3	1.5	0.2	0.723	0.7	.
Cc1cc(C)nc(SCc2ccc(C(=O)N/N=C3\CC(C)CC(C)(C)C3)cc2)n1 (stereo not drawn)	-11.0	0.9	.	-0.6	.	-1.3	.
CCOc1ccccc1CN1C(=O)NC2(CCCCCC2)C1=O	-4.1	0.1	0.5	1.9	0.706	-6.0	.
CN(CCc1ccccn1)C1CC(=O)N(c2ccc(Cl)cc2)C1=O (stereo not drawn)	-1.1	0.3	-6.3	0.9	0.77	3.4	-3.4%
Oc1ccc(/C=N/n2c(COc3ccccc3)n[nH]c2=S)cc1O	7.3	-2.8	.	-0.6	.	-0.4	9.1%
CC(C)(C)c1ccc(OCCC(=O)OCC(=O)NC(=O)NC2CCCC2)cc1	-10.4	-2.5	0.6	-0.1	0.639	-3.7	7.7%
CN(CC(=O)Nc1ccc(Cl)cc1)C(=O)C1=COCCO1	-0.9	2.4	3.5	-0.4	0.646	-1.4	4.9%
O=C(Nc1ccccc1-c1ccccc1)c1cccc([N+](=O)[O-])c1	-7.0	2.0	3.0	-0.5	0.691	0.0	23.6%
Cc1ccc(C2NC(=O)c3ccccc3N2)s1 (stereo not drawn)	-4.4	6.3	-30.1	0.1	0.71	-0.9	-5.7%
O=C(c1ccccc1)c1cccn1CC(=O)N1CCN(c2ccc(F)cc2)CC1	-18.8	-1.3	0.3	0.4	0.707	5.6	4.8%
CCOc1ccc(NC(=O)NNC(=O)C2CCC(C(C)(C)C)CC2)cc1 (stereo not drawn)	-0.5	-1.1	0.8	0.4	0.657	0.7	-10.4%
CN(Cc1ccccc1)C(=O)c1ccc(NC(=O)Cc2ccc(NC(=O)C3CCCN(C(=O)CCc4ccccc4)C3)cc2)cc1 (stereo not drawn)	7.8	-0.6	0.0	.	0.706	.	.
CCN(C(=O)COC(=O)c1cccnc1Nc1cccc(C(F)(F)F)c1)C1CCS(=O)(=O)C1 (stereo not drawn)	0.1	1.4	-0.1	-6.5	0.693	9.4	-3.6%
O=C(CN1C(=O)c2cccc([N+](=O)[O-])c2C1=O)N1CCN(c2ccc(F)cc2)CC1	4.7	0.6	.	0.1	.	0.7	-8.1%
NC(=O)c1cc(N2C(=O)C=CC2=O)ccc1Cl	6.2	2.8	0.1	0.5	0.744	2.4	-3.9%
CCn1c2ccccc2c2nc3cc(S(=O)(=O)N4CCOCC4)ccc3nc21	33.6	1.8	-6.0	.	0.685	.	2.6%
O=C(c1cccc(F)c1)N(Cc1nc2ccccc2c(=O)[nH]1)C1CCCC1	-8.0	4.1	5.1	0.8	0.701	-9.6	-2.6%
CCC(=O)N1CCN(c2ccc(NC(=O)COc3cccc(C)c3C)cc2)CC1	0.1	3.9	1.3	0.1	0.654	1.3	.
COc1cc(SC)ccc1C(=O)NCCc1c[nH]c2ccccc12	6.0	1.9	0.1	-0.3	0.608	-4.3	.
Cc1ccc(F)cc1NC(=O)CCOc1ccccc1	-3.3	-0.1	-0.8	-0.4	0.676	0.7	-4.7%
CCCOc1ccc(/C(O)=C2/C(=O)C(=O)N(CCCOC)C2c2cccnc2)cc1 (stereo not drawn)	-2.7	-0.3	4.6	1.7	.	-1.4	-6.9%
O=C(COC(=O)/C=C/c1cccc(C(F)(F)F)c1)NCc1cccs1	7.3	-1.5	1.0	-1.2	0.683	0.2	.
COc1ccc(CN(C)c2ncnc3sccc23)c(OC)c1OC	-22.3	1.6	-1.6	-0.3	0.639	2.9	.
CN1C(=O)Cc2cc(S(=O)(=O)N3CCN(c4cccc(C(F)(F)F)c4)CC3)ccc21	1.7	-5.0	2.9	0.9	0.663	-5.0	.
Other structures
SMILES	Beta2AR agonist	HNF4A DNA FP	UCH37 inh	Bfl-1 A1 inh	Ecoli growth	LANA-H2B inh	Vif TR-FRET
Cc1cccc(NC(=O)CSc2nnc(CNC(=O)c3ccco3)n2C)c1	-0.3	-2.4	0.3	-0.4	0.694	-4.5	.
O=S(=O)(Nc1cccc(Oc2ccc(Cl)cc2)n1)c1ccc(F)cc1	-2.8	1.6	-0.1	-0.3	0.649	-2.0	-15.5%
CCN1C[C@@H]2[C@@H]3C(=O)N(Cc4ccccc4)C(=O)[C@@H]3[C@](Cc3ccccc3)(C(=O)OC)N2C1=NCc1ccccc1	4.6	1.0	0.9	.	0.672	.	-1.9%
FC(F)(F)c1ccccc1/C=N/n1c(C2CCCCC2)n[nH]c1=S	10.6	-2.1	.	0.9	.	0.3	9.7%
O=C1NCCN1Cc1ccccc1	5.8	-3.5	0.6	-0.3	0.686	-3.1	3.6%
O=C(CN=C1NS(=O)(=O)c2ccccc21)OCC(=O)c1ccccc1	1.6	-3.6	0.9	0.8	0.668	3.2	.
COC(=O)CN(c1nc(C)c(Cl)c(OC)n1)S(=O)(=O)c1ccc(C)cc1	0.5	-0.3	6.1	0.1	0.719	0.2	11.4%
O=C(O)c1ccc(NC2=C(Cl)C(=O)c3ccccc3C2=O)cc1	95.9*	1.8	15.8	-4.6	0.699	-7.4	.
CN1CCN(C(CNS(=O)(=O)c2ccc(F)cc2)c2cccnc2)CC1 (stereo not drawn)	-2.9	2.8	3.3	0.6	0.699	1.3	?
Cc1cc[n+](-c2nc([O-])sc2/C=N/Nc2ccc([N+](=O)[O-])cc2)cc1	10.1	-0.9	.	-0.4	.	0.8	19.7%
O=C(CNC(=O)c1ccccc1)OCCCOC(=O)CNC(=O)c1ccccc1	-2.4	1.6	4.3	0.5	0.718	-5.3	.
O=C(O)c1ccc(CSc2nnc(-c3ccco3)n2-c2ccccc2)cc1	2.3	-0.9	0.4	1.3	0.666	6.7	17.5%
CC(C)(C)c1cc(/C=C2\NC(=O)NC2=O)cc(C(C)(C)C)c1O	-0.1	2.8	5.4	0.4	0.67	-0.2	-10.4%
CC(=O)N(c1nc(CCl)cs1)c1ccc(C)cc1C	-2.6	-3.3	-1.5	0.7	0.691	1.0	4.0%
Clc1ccc2nc(-c3cccc(SC4CCCCC4)c3)c(NCc3ccccc3)n2c1	-3.0	-0.5	-63.3	-0.1	0.815	-0.7	.
O=C(Nc1ccc(N2CCOCC2)c(S(=O)(=O)Nc2ccccc2Cl)c1)c1ccc(F)cc1	3.0	3.6	1.9	1.1	0.735	2.7	-2.9%
COc1ccc(/C(C)=N/OCC(=O)Nc2nc3ccccc3s2)cc1	0.7	-0.1	.	-0.5	.	7.3	-10.0%
CS(=O)(=O)N(CC(O)Cn1c2ccccc2c2ccccc21)c1cccc2ccccc12 (stereo not drawn)	10.5	-0.6	5.9	1.8	0.683	1.8	0.1%
Cc1nn(-c2ccc(Cl)cc2)c2[nH]c(=O)c(CNCc3ccc4c(c3)OCO4)cc12	7.3	4.7	-1.2	-0.1	0.681	24.5*	71.7%
Oc1cccc(CCC2CCCCN2Cc2cn[nH]c2-c2ccc3c(c2)OCO3)c1 (stereo not drawn)	-2.6	6.5	6.9	-1.9	0.671	-1.5	.
CCOc1ccc(CCNC(=O)COC(=O)c2cccc(OC)c2O)cc1OCC	-1.4	1.6	4.9	0.3	0.656	7.2	.
Cc1ccc(C(C(=O)NC(C)(C)C)N(Cc2ccccc2)C(=O)c2snc(C(N)=O)c2N)o1 (stereo not drawn)	10.6	0.4	-7.2	0.1	0.68	-1.3	.

Screening data (PubChem BioAssay)
